# Compound activity from PubChem BioAssay.
# 2A StopGo = lowers the luciferase signal of an FMDV 2A StopGo reporter | human cells with a luciferase reporter of 2A StopGo recoding; control for the full effect not named in the record | Potency, µM (top dose mostly 57.9 µM), without a hit: at the top dose signal change, negative = less light | 410,000 tested, 1.2% active | AID 1159524; active = well fitted falling curve with a large enough effect; inconclusive = small, poorly fitted or top-dose-only effect; inactive = no such curve, though single readings can be large or run the other way; tested in HEK293T cells; note: % is set by controls: 0 for no effect and ±100 for the full control effect; nearly all actives have a fitted effect of over 45% in size; luciferase light after 4 h
# Cruzain Triton = blocks cruzain activity in presence of Triton detergent. P25779. purified cruzain, Z-FR-AMC fluorescence, 0.01% Triton. Potency, µM, for inactives: max response, negative = inhibition, usual class: inhibitors. 200,000 tested, 0.43% active; active = well fitted curve in the direction sought with a large enough effect; inconclusive = small, poorly fitted or top-dose-only effect, or another doubt; inactive = no such curve, though single readings can be large; an effect the other way counts as inactive or inconclusive;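 note: plate controls were neutral wells for no effect and buffer without enzyme for full effect; nearly all actives have a fitted effect of over 40% in size; top concentration of the series not given in the record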
# Target sequence (P25779 123-467 limits assumed): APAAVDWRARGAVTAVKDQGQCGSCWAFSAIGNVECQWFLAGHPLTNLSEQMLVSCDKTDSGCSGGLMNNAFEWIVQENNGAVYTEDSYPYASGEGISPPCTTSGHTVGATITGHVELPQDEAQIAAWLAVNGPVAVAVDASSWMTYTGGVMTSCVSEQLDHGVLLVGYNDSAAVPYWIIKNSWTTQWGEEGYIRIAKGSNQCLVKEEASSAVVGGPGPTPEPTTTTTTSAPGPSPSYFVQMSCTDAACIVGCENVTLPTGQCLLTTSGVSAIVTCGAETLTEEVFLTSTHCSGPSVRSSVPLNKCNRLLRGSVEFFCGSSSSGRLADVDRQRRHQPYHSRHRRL
#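 Purified cruzain (1.5 nM final) was preincubated with compounds for 15 min at room temperature in 100 mM sodium acetate pH 5.5, 5 mM DTT, 0.01% Triton X-100. Reaction started with 2 uM Z-FR-AMC; AMC fluorescence change over 60 s gave activity.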
# Marburg entry inh = Marburg virus entry inhibition. Marburg virus pseudotyped entry inhibition, cell reporter; control for the full effect not named in the record; about a third of the inactives were read at about 46 µM. Potency, µM (top dose mostly 37.8 µM), for the others: at the top dose activity change, negative = inhibition, usual class: inhibitors. 300,000 tested, 1.8% active. AID 540276; active = well fitted inhibition curve with a large enough effect; inconclusive = small, poorly fitted or top-dose-only effect, or effect the other way; inactive = flat fitted curve, though single readings scatter; tested in HEK293 cells; about a fifth of its hits are not listed in these tables; note: % is set by controls: 0 for no effect and ±100 for the full control effect; luciferase read-out
# Cruzain inh noDet = cruzain (T. cruzi) inhibition without detergent; P25779; 200,000 tested, 2.3% active; purified cruzain, Z-FR-AMC fluorescence, no detergent; Potency, µM, for inactives: max response, negative = inhibition, hits mostly inhibitors; active = well fitted curve in the direction sought with a large enough effect; inconclusive = small, poorly fitted or top-dose-only effect, or another doubt; inactive = no such curve, though single readings can be large; an effect the other way counts as inactive or inconclusive;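 note: plate controls were enzyme without inhibitor for no effect and buffer without enzyme for full effect; nearly all actives have a fitted effect of over 40% in size; top concentration of the series not given in the record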
#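 Purified cruzain at 1.5 nM, pre-incubated 15 min with compound at room temperature in 100 mM sodium acetate pH 5.5, 5 mM DTT, 0.00005% Triton X-100. Reaction started with 2 uM Z-FR-AMC; AMC fluorescence increase over 60 s gives rate.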
# Lassa entry inh = inhibitors of Lassa virus binding or cell entry. Lassa virus pseudotype entry inhibition, cell reporter; control for the full effect not named in the record. Potency, µM (doses to about 37.9 µM), for inactives: at the highest dose activity change, negative = inhibition, actives largely listed as inhibitors. 300,000 tested, 1.2% active. AID 540256; active means well fitted inhibition curve with a large enough effect; inconclusive means small, poorly fitted or top-dose-only effect, or effect the other way; inactive means flat fitted curve, though single readings scatter; tested in HEK293 cells; note: % is set by controls: 0 for no effect and ±100 for the full control effect; nearly all actives have a fitted effect of over 50% in size; luciferase read-out
# SARS PLpro yeast = SARS-CoV PLP inhibition in yeast. S. cerevisiae expressing SARS-CoV PLpro, growth rescue; control for the full effect not named in the record. Potency, µM (doses to about 32.9 µM), without a hit: at the top dose activity, positive = growth rescue. 330,000 tested, 0.19% active. AID 485353; note: 0% is about no effect; nearly all actives have a fitted effect of over 55% in size; growth read by luminescence after 48 h
# RE007 growth inh = less growth of the S. pombe RE007 Vpr strain. Potency, µM (highest dose often 92.2 µM), without a hit: at the top dose activity change, negative = less growth. S. pombe RE007 Vpr strain, BacTiter-Glo ATP luminescence, 24 h; control for the full effect not named in the record. 360,000 tested, 0.21% active; active = well fitted falling curve with a large enough effect; inconclusive = small, poorly fitted or top-dose-only effect; inactive = no such curve, though single readings can be large or run the other way;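 note: % is set by controls: 0 for no effect and ±100 for the full control effect; nearly all actives have a fitted effect of over 50% in size; the assay follows cell death caused by Vpr and the record does not say whether a fall means rescue or toxicity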
#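 Fission yeast strain RE007, carrying one chromosomally integrated HIV-1 vpr copy, was seeded at OD 0.01 in PMG+AL medium with 23 nL pinned compound. After 24 h at 30 °C and 99% humidity, viability was read by BacTiter-Glo luminescence.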
# NS1 inh = influenza NS1 inhibition | S. cerevisiae slowed by influenza A NS1, growth recovery by OD600 | Potency, µM (doses to about 46.1 µM), for inactives: at the top dose activity, positive = more growth | 270,000 tested, 0.4% active; note: actives are rising curves; nearly all actives have a fitted effect of over 50% in size
#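 OD600 was taken as the measure of yeast growth restored by compound in an NS1-expressing S. cerevisiae strain. Cells had been washed out of glucose medium and diluted 1:100 into galactose -URA medium, pH 6.0.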
# Numbers without * were called inactive; ? = inconclusive; · = not tested or not shown; & = joins results of further samples; [ ] = another dose, or the depositor's remark. Unless noted, calls come from the whole dose curve; as a rule, active means well fitted rising curve with a large enough effect; inconclusive means small, poorly fitted or top-dose-only effect; inactive means no such curve, though single readings can be large or run the other way. Potency is the fitted concentration of half-maximal effect. No enrichment for hits; any-hit rate near 4.5%.
molecule	2A StopGo	Cruzain Triton	Marburg entry inh	Cruzain inh noDet	Lassa entry inh	SARS PLpro yeast	RE007 growth inh	NS1 inh
CCN(CC)S(=O)(=O)c1cc(NC(=O)COC(=O)c2ccc(NC(=O)CC#N)cc2)ccc1C	-8%	·	0%[46.1 µM]	·	16%[46.1 µM]	0%	5%	·
CCS(=O)(=O)N1CCC(C(=O)NCc2ccc(F)cc2Cl)CC1	·	-2.9%	?	-18%	0%	7%	-8%	-7%
O=C(C1CC(c2ccccc2O)=NO1)N1CCCC1 (configuration not stated)	·	-5.5%	?	-10%	14%	-1%	16%	5%
O=C(Cn1ccc2cc(S(=O)(=O)N3CCCC3)ccc21)NCc1ccco1	-6%	·	·	·	·	2%	-13%	-10%
Fc1ccccc1COc1ccc(-c2nnn(Cc3ccccc3F)n2)cc1	3%	-0.5%	·	-13%	·	12%	-19%	0%
CCOC(=O)c1c(NC(=O)COc2ccc(Cl)cc2C)sc2c1CCCCC2	0%	-1.5%	·	10%	5%[46.1 µM]	·	·	·
Cc1ccnc(NC(=O)c2ccccc2NC(=O)c2ccc(Cl)cc2Cl)c1	7%	·	·	·	·	6%	3%	27%
CC(C)c1ccc(NC(=S)NNC(=O)c2cccs2)cc1	84%[activator]	·	11%[46.1 µM]	·	14%	0%	28%	6%
Cc1ccc(-c2nc3ccsc3c(=O)o2)cc1	18%	0.1%	-2%	3%	?	-2%	-24%	-40%
CCCCC(C)n1[nH]c(=O)c2c(C)cc(C)nc21 (configuration not stated)	-20%	·	7%	·	?	0%	25%	-1%
O=c1cc(-c2ccc(F)cc2)nc(SCc2nc(-c3cccc(C(F)(F)F)c3)no2)[nH]1	-8%	2.6%	·	-6%	3%[46.1 µM]	·	·	·
CCOC(=O)N1CCN(C(=O)c2ccccc2-c2ccccc2)CC1	-20%	-0.8%	·	9%	?	15%	5%	-11%
O=C(N/N=C1/CCc2ccccc21)C1CC1	54%[activator]	·	9%[46.1 µM]	·	-4%	-3%	-20%	·
O=C(CCCCl)OCc1cn(-c2ccc(Cl)cc2)nn1	19%	·	?	·	-1%	1%	-5%	·
CCn1cc(CN2CCN(CC(C)(C)C)C(CCO)C2)c2ccccc21 (configuration not stated)	-13%	·	·	·	·	0%	-2%	?
CCC(C)N1C(=O)/C(=C\c2cc3c4c(c2)CCCN4CCC3)C(=O)NC1=S (configuration not stated)	32µM*	-6.5%	1%	0%	5%	-6%	-14%	27%
Cc1c(C(=O)N2CCc3ccccc32)oc2ccccc12	-8%	-4.9%	?	-2%	-18%	-16%	-20%	-23%
COc1ccc(C(CNC(=O)c2ccc(Br)o2)N2CCN(C)CC2)cc1 (configuration not stated)	3%	·	0%	·	19%	?	-11%	·
CCc1ccc(C(C)NC(=S)NCc2ccc(F)cc2)cc1 (configuration not stated)	7%	·	?	·	?	11%	10%	19%
COC(=O)c1cc(NC(=O)c2ccc(C)cc2)c(=O)oc1C	26%	·	-4%[46.1 µM]	·	-11%[46.1 µM]	0%	-1%	0%
Cc1ccc2nsnc2c1S(=O)(=O)NCc1ccc2c(c1)OCO2	34%[activator]	-1.6%	25%	-12%	-9%	13%	8%	-1%
Cn1c(N)c(C(=O)COC(=O)c2cc(C3CC3)nc3ccccc23)c(=O)n(C)c1=O	?	-4.1%&-3.8%	2%	?	9%	17%	-9%	-12%
COc1cc2c(cc1OC)/C(=C/C(=O)c1ccccc1F)NCC2	-20%	·	-15%[46.1 µM]	·	-24%[46.1 µM]	-5%	-12%	-7%
COc1ccc(OC(C)C(=O)Nc2cccc(OC)c2)cc1 (configuration not stated)	-12%	8.5%	-10%[46.1 µM]	4%	0%	-2%	-6%	-17%
Cc1ccc(NC(=O)c2cc(-c3ccc4c(c3)OCO4)on2)cc1C	11%	·	12%[46.1 µM]	·	·	9%	-9%	-10%
O=C(NCc1cccnc1)C1CCCN1S(=O)(=O)c1ccc(Cl)cc1 (configuration not stated)	-9%	·	·	·	·	-1%	-1%	4%
CC(C)n1c(N2CCN(C(=O)NCc3ccccc3)CC2)nc2ccccc21	?	7.3%	?	-4%	-3%	2%	-8%	-10%
COCCCNC(=O)C1CC(=O)N(CCc2ccccc2)C1 (configuration not stated)	13%	4.5%	?	5%	6%	?	-7%	7%
Cc1cccc(S(=O)(=O)NCCC(=O)OCC(=O)Nc2ccc(C#N)cc2)c1	-2%	-0.4%	36%	-10%	5%	1%	1%	2%
O=C(Nc1ccccc1N1CCCC1)c1ccc(Cl)c(S(=O)(=O)N2CCOCC2)c1	-22%	·	-14%	·	-6%	9%	5%	·
COC(=O)c1ccccc1S(=O)(=O)N1CCC(NC(=O)C(Cc2cccc(OC)c2OC)NC(C)=O)CC1 (configuration not stated)	2%	·	27%[46.1 µM]	·	·	3%	4%	-3%
O=C(CCc1c[nH]c2ccccc12)N=Nc1c(O)[nH]c2ccccc12	-9%	·	-16%[46.1 µM]	·	?	0%	1%	·
O=C(CSC(=S)N1CCCCC1)Nc1ncc2c(n1)CC(c1ccco1)CC2=O (configuration not stated)	-19%	·	-7%[46.1 µM]	·	?	1%	25%	5%
Cc1nc2[nH]onc2c2nccc(=O)c12	8%	-3.9%	15%	-7%	-1%	2%	4%	2%
CCN(CC)S(=O)(=O)c1ccc(C)c(NC(=O)CN2CCN(Cc3ccccc3)CC2)c1	-22%	·	·	·	·	-1%	-5%	3%
CC(=NC1CCCC1)c1c(C)[nH]n(-c2nc3ccccc3s2)c1=O	-16%	-5.0%	?	?	?	-8%	-7%	-2%
CCCn1c(CCC(=O)Nc2cc(OC)cc(OC)c2)nc2cccnc21	-16%	-1.8%	7%[46.1 µM]	-7%	-13%[46.1 µM]	·	·	·
CCOC(=O)c1cnc2ccc(OC)cc2c1NCCN1CCOCC1	-11%	·	·	·	·	4%	-5%	-2%
CCOC(=O)CSc1nnc(-c2ccccc2OC)o1	29%	2.6%	1%	1%	15%	-1%	10%	-4%
O=C(NCc1ncc(C(F)(F)F)cc1Cl)Nc1ccccc1	13%	·	2%	·	?	-2%	3%	-10%
COc1ccc(C(CNC(=O)Cc2ccccc2)N2CCCCC2)cc1 (configuration not stated)	0%	·	?	·	1%	1%	-28%	2%
CN(c1cnn(-c2ccccc2)c(=O)c1Cl)n1cccc1	35%[activator]	·	?	·	0%	0%	1%	-3%
CCc1ccc(-c2ccc3nnc(SCC(=O)NCC4CCCO4)n3n2)cc1 (configuration not stated)	2%	·	-17%[46.1 µM]	·	?	1%	26%	·
COc1ccc(-n2nc3c(N4CCC(C(=O)NC5CCCCC5)CC4)nnc(C)c3c2C)cc1	3%&-7%	-4.3%	·	-7%	0%[46.1 µM]	-3%	-8%	-2%
Cc1nn(Cc2ccc(F)cc2)c(C)c1NC(=O)c1cnn2cccnc12	-14%	1.0%	6%	-7%	5%	3%	0%	-2%
OCC1OC(Oc2cccc3ccccc23)C(O)C(O)C1O (configuration not stated)	-2%	·	·	·	·	0%	2%	3%
CCc1ccc2[nH]c(C(=O)Nc3ccc(F)cc3Br)cc2c1	-4%	·	4%	·	9%	2%	0%	-1%
O=C1c2cccc3cccc(c23)N1Cc1cccc(F)c1	7%	·	-1%[46.1 µM]	·	14%[46.1 µM]	-62%	?	-32%
Cc1noc(-c2ccccc2)c1NC(=O)Nc1ccccc1	12%	·	0%[46.1 µM]	·	8%	-1%	-3%	0%
COc1ccc(C2c3[nH]c4ccccc4c3CCN2CCCn2cccn2)c(F)c1 (configuration not stated)	-17%	·	?	·	?	-2%	-2%	1%
Cc1ccc(/C=N/NC(=O)C2COc3ccccc3O2)s1 (configuration not stated)	63%[activator]	·	?	·	?	-1%	-6%	·
Cc1cccc(C(=O)NCC(c2ccc(F)cc2)N2CCOCC2)c1 (configuration not stated)	-5%	·	2%[46.1 µM]	·	0%	1%	-1%	-2%
O=C(CN1C(=O)c2ccccc2C1=O)Nc1ccccc1C(=O)NC1CCCCCC1	16%	-6.9%	?	3%	?	17%	19%	14%
COc1cc(OC)c(OC)cc1/C=C1\CCC/C(=C\c2cc(OC)c(OC)cc2OC)C1=O	?	·	?	·	?	-2%	-1%	11%
Cc1ccc(OCC(=O)N2CCOCC2)cc1C	0%	2.5%	?	-10%	?	-6%	4%	-2%

# Random excerpt: 7 entries already listed, in no set order.
molecule	2A StopGo	Cruzain Triton	Marburg entry inh	Cruzain inh noDet	Lassa entry inh	SARS PLpro yeast	RE007 growth inh	NS1 inh
O=C(NCc1ncc(C(F)(F)F)cc1Cl)Nc1ccccc1	13%	·	2%	·	?	-2%	3%	-10%
O=C(CN1C(=O)c2ccccc2C1=O)Nc1ccccc1C(=O)NC1CCCCCC1	16%	-6.9%	?	3%	?	17%	19%	14%
CCc1ccc(-c2ccc3nnc(SCC(=O)NCC4CCCO4)n3n2)cc1 (configuration not stated)	2%	·	-17%[46.1 µM]	·	?	1%	26%	·
CCCn1c(CCC(=O)Nc2cc(OC)cc(OC)c2)nc2cccnc21	-16%	-1.8%	7%[46.1 µM]	-7%	-13%[46.1 µM]	·	·	·
CCOC(=O)CSc1nnc(-c2ccccc2OC)o1	29%	2.6%	1%	1%	15%	-1%	10%	-4%
Cc1nn(Cc2ccc(F)cc2)c(C)c1NC(=O)c1cnn2cccnc12	-14%	1.0%	6%	-7%	5%	3%	0%	-2%
CCN(CC)S(=O)(=O)c1ccc(C)c(NC(=O)CN2CCN(Cc3ccccc3)CC2)c1	-22%	·	·	·	·	-1%	-5%	3%
